Vaccinia mCherry: qHTS for Stage-Specific Inhibitors of Vaccinia Orthopoxvirus: mCherry Reporter Primary qHTS | Vaccinia virus mCherry reporter infection, fluorescence; about a quarter of the inactives have no number | Potency, µM (highest dose often 36.5 µM), for inactives: top-dose activity change, negative = inhibition, usual class: inhibitors | actives 0.63% (n = 310,000) | AID 720579, 2013; active = well fitted inhibition curve with a large enough effect; inconclusive = small, poorly fitted or top-dose-only effect; inactive = no such curve, though single readings can be large or run the other way; tested in A549 cells; also: nearly all actives have a fitted effect of over 35% in size; inactives centre near -10
Vaccinia Venus: qHTS for Stage-Specific Inhibitors of Vaccinia Orthopoxvirus: Venus Reporter Primary qHTS | Vaccinia virus Venus reporter expression, fluorescence | Potency, µM (doses to about 36.5 µM), without a hit: at the top dose activity change, negative = inhibition, most hits filed as inhibitors | actives 0.46% (n = 330,000) | AID 720580, 2013; active means well fitted inhibition curve with a large enough effect; inconclusive means small, poorly fitted or top-dose-only effect; inactive means no such curve, though single readings can be large or run the other way; tested in A549 cells; also: nearly all actives have a fitted effect of over 30% in size; inactives centre near -10
Starred values were filed as active, the others as inactive; i = inactive; ? = inconclusive; nt = not tested or not shown; [ ] = remark or other dose. % is scaled to controls: 0 for no effect and ±100 for the full control effect; potency is read from the fitted curve at half-maximal effect.

structure,Vaccinia Venus,Vaccinia mCherry
CCOc1ccc(NS(=O)(=O)c2ccc3c(c2)N(C(C)=O)CCO3)cc1,7%[7.34 µM],1%[7.34 µM]
CCN(C(=O)c1cc2c(s1)-c1c(C)cccc1OC2)c1cc(C)ccc1C,13%,-7%
CCOc1ccccc1NC(=O)C(=O)N/N=C/c1ccc([N+](=O)[O-])cc1,-17%,i
CCCn1c(=S)[nH]c2cc(C(=O)N3CCN(c4ccccc4)CC3)ccc2c1=O,-6%,-10%
O=c1c2c3c(sc2n2cnnc2n1Cc1ccccc1)CN(Cc1ccccc1)CC3,-12%,-21%
CCc1ccc(C(c2ccc(CC)cc2)C(Cl)Cl)cc1,-14%,-16%
CCN(CC)S(=O)(=O)c1ccc(C(=O)Nc2ncn(Cc3ccccc3)n2)cc1,-16%,-2%
CC1(C(=O)NCc2cccc(C(F)(F)F)c2)CCN1C1Cc2ccccc2C1 (stereo not given),-10%,i
O=C1c2ccccc2C(=O)N1CCSc1n[nH]c(=S)s1,?,?
Oc1ccc(Cl)cc1CNn1cnnc1,-2%,-4%
O=C(OC1CC2CCC(N2)C1C(=O)O)c1ccccc1 (stereo not given),-10%,i
COCC1CCCN(c2nc(CN3CCN(C(=O)c4ccco4)CC3)nc3ccccc23)C1 (stereo not given),-1%,-10%
c1ccc2c(N3CCOCC3)nc(N3CCOCC3)nc2c1,-14%,0%
Nc1nc(=S)c2snnc2[nH]1,-6%,43%[activator]
COc1ccc2cc(C3c4cc(OC)c(OC)cc4CCN3C(=O)c3ccco3)c(=O)[nH]c2c1 (stereo not given),-11%,-12%
COc1ccc(OC)c(CCNC(=O)c2ccc3c(c2)N(Cc2ccccc2)CCS3)c1,-14%,-17%
Cc1ccc(S(=O)(=O)N2CCOCC2)cc1NC(=O)COC(=O)C1CCC1,-10%,i
O=c1oc2ccc(Br)cc2cc1-c1csc(-c2ccc(Cl)cc2)n1,-1%,1%
CC(NC(=O)c1ccccc1F)c1cccc2ccccc12 (stereo not given),-19%,-1%
CCNc1nc(SC)nc(N(C#N)CC(=O)OC)n1,-20%,-23%
CC(C)(C)C(=O)N/C(N)=N/c1nc2ccccc2o1,-5%,i
CS(=O)(=O)c1ccc2nc(NC(=O)C3C4C=CC(C4)C3C(=O)O)sc2c1 (stereo not given),-8%,-11%
CCCNC(=O)C1(C)CCN(Cc2ccc(Oc3ccccc3)cc2)C1 (stereo not given),-24%,14%
Cc1cc(C)c(Cn2c(=O)[nH][nH]c2=O)cc1Cn1c(=O)[nH][nH]c1=O,-3%,-2%

Among those listed so far, 5 contain an NH in an aromatic ring:
structure,Vaccinia Venus,Vaccinia mCherry
CCCn1c(=S)[nH]c2cc(C(=O)N3CCN(c4ccccc4)CC3)ccc2c1=O,-6%,-10%
O=C1c2ccccc2C(=O)N1CCSc1n[nH]c(=S)s1,?,?
Nc1nc(=S)c2snnc2[nH]1,-6%,43%[activator]
COc1ccc2cc(C3c4cc(OC)c(OC)cc4CCN3C(=O)c3ccco3)c(=O)[nH]c2c1 (stereo not given),-11%,-12%
Cc1cc(C)c(Cn2c(=O)[nH][nH]c2=O)cc1Cn1c(=O)[nH][nH]c1=O,-3%,-2%

Later entries:
structure,Vaccinia Venus,Vaccinia mCherry
Cc1ccc(-n2c3nc(=O)[nH]c(=O)c-3cc3c(C)nn(-c4ccccc4)c32)cc1Cl,2%,-2%
COc1ccc(S(=O)(=O)Nc2cccnc2)cc1,-1%,-7%
CCOc1ccc(S(=O)(=O)NCc2cccnc2)c2ccccc12,-11%,i
COc1ccc(CN2CCCC(n3cc(C(=O)NC4CCCC4)nn3)C2)c2ccccc12 (stereo not given),-19%,i
COc1ccc(S(=O)(=O)N2CCN(C(=O)c3ccccn3)CC2)cc1,-2%,i
COc1ccc(CCNC(=O)c2ccc3c(c2)CCN3S(=O)(=O)c2ccc(C)cc2)cc1,-19%,-22%
CCc1ccc2oc(-c3cccc(NC(=O)c4ccc(-c5cccc([N+](=O)[O-])c5)o4)c3)nc2c1,10%,0%
Fc1ccc(NC(=S)N2CCc3ccccc3C2)c(F)c1,-15%,-13%
N#Cc1ccc(-c2ccc(OCC(=O)Nc3cccnc3)cc2)cc1,-15%,-11%
O=C(OCc1c(-c2ccccc2)ncc2ccccc12)c1ccccc1C(F)(F)F,?,-13%
Cc1ccc(N2C(=O)N(Cc3cccc(Cl)c3)c3ccccc3S2(=O)=O)cc1,-16%,-16%
COc1ccc(CNC(=O)C[C@H]2C[C@H](C(=O)N(C(C)C)C(C)C)[C@@]3(C)c4[nH]c5ccc(Cl)cc5c4CCN3C2=O)cc1OC,?,?
O=C(O)CSc1ncccn1,3%,-13%
O=C(NCc1ccccc1)c1ccc(NC(=O)C2CCCO2)cc1 (stereo not given),0%,-10%
COC(=O)c1ccc(COC(=O)c2ccccn2)cc1,-1%,-7%
O=C(C[C@H]1CC[C@@H]2[C@H](COC[C@@H](O)CN2Cc2ccc(Cl)cc2)O1)NCCc1ccccc1,-25%,-13%
CCC(=O)N1CCc2cc(S(=O)(=O)CCC(=O)Nc3ccc(C(C)=O)cc3)ccc21,-22%,i
CCOc1cc(/C=N\NC(=O)CC(=O)NCCc2ccccc2)ccc1O,-12%,-10%
O=C(CCSc1ccccc1Cl)Nc1cccc([N+](=O)[O-])c1,-15%,-19%
O=C(O)/C(=C\c1cccc(OCc2ccccc2)c1)c1ccc(F)cc1,-14%,-12%
COc1cccc(CNC(=O)Cn2c(SCC(=O)Nc3ccc(C)c(C)c3)nc3ccccc32)c1,-25%,-29%
O=C(NNS(=O)(=O)c1ccccc1)c1ccc(O)cc1,-14%,-11%
Cc1cccc(OCC(=O)N/N=C/c2cc([N+](=O)[O-])ccc2N2CCOCC2)c1,7%,i
Cc1ccccc1NC(=S)NCc1ccc(Cl)cc1,-21%,0%
O=C(Nc1ccccc1-c1nnn(CC(=O)N2CCCc3ccccc32)n1)c1ccc(Cl)cc1,-16%,-14%
COc1ccc(CN(Cc2cc3ccc(C)cc3[nH]c2=O)Cc2nnnn2C2CCCC2)cc1,-22%,-1%
Cc1c(Cl)cccc1NS(=O)(=O)c1c(C(=O)N2CCOCC2)c(C)n(C)c1C,-23%,-21%
Cc1c(C(=O)Nc2ccccc2Br)oc2ccc(S(=O)(=O)N3CCCCCC3)cc12,?,?
CCOC(=O)c1cc(CC)sc1NC(=O)Cc1ccsc1,-26%,-29%
CC(C)(C)OC(=O)C(Cc1ccc(OC(C)(C)C)cc1)NC(=O)CNC(=O)OCc1ccccc1 (stereo not given),?,11µM*
CC(C)[C@H](NC(=O)N1CC(=O)Nc2ccccc21)C(=O)N1CCC[C@@H]1C(=O)O,3%,-14%
COC(C/C=C/[C@H](O)[C@H](C)OCc1ccccc1)OC,15%,-14%
CCOC(=O)c1ccc(NC(=O)CC2C(=O)N(c3cccc(OC)c3)C(=O)N2Cc2cccnc2)cc1 (stereo not given),-3%,10%
CCOC(Cn1cc([N+](=O)[O-])c(=O)[nH]c1=O)OCC,-1%,-7%
COc1ccc(C2(C)NC(=O)N(CC(=O)N(c3ccccc3)C3CCS(=O)(=O)C3)C2=O)cc1 (stereo not given),2%,-18%
COC(=O)C1CCN(C(=O)COC(=O)CCc2nc3ccccc3c(=O)[nH]2)CC1,-9%,0%
CC(C)CCNC(=O)c1onc(CSc2ccc(Cl)cc2)c1C(=O)NCCC(C)C,-4%,-15%
O=C(COC(=O)CNC(=O)c1ccco1)NCc1ccc(F)cc1,1%,i
COc1cc(C)ccc1OCCOCCOc1ccccc1[N+](=O)[O-],-12%,i
CCOc1ccc(NC(=O)c2ccc(F)c(S(=O)(=O)N(Cc3ccc(C(=O)OC)cc3)Cc3ccc(OC)c(OC)c3)c2)cc1,-10%,-15%
COc1ccc(N2C(=O)C(CC(=O)O)S/C2=C\C(C)=O)cc1 (stereo not given),-11%,-11%
COc1ccc(C(CC(=O)O)NC(=O)c2cc3ccccc3oc2=O)cc1OC (stereo not given),9%,0%
O=c1c2oc3ccccc3c2n(Cc2cccc(F)c2)c(=O)n1Cc1ccc2c(c1)OCO2,0%,-9%
Cc1cccc(N2CCN(S(=O)(=O)c3cc(C(=O)Nc4ccccc4Cl)ccc3F)CC2)c1C,-8%,-9%
COc1ccc(C(=O)N2CC(=O)Nc3ccc(C)cc3C2c2ccc(F)cc2)c(OC)c1 (stereo not given),-3%,-17%
COc1ccc(C(=O)NCc2csc(C(C)C)n2)cc1OC1CCN(C(C)=O)CC1,-5%,i
CCOC(=O)c1c(C)[nH]c(C)c1C(=O)CSc1nc2ccccc2c(=O)n1-c1ccc(F)cc1,?,?
CCC(C)(C)NC(=O)C(c1ccc(C)cc1)N(CC1CCCO1)C(=O)CNC(=O)c1cccs1 (stereo not given),-13%,-18%

Of the compounds above, 2 contain a CF3 group:
structure,Vaccinia Venus,Vaccinia mCherry
CC1(C(=O)NCc2cccc(C(F)(F)F)c2)CCN1C1Cc2ccccc2C1 (stereo not given),-10%,i
O=C(OCc1c(-c2ccccc2)ncc2ccccc12)c1ccccc1C(F)(F)F,?,-13%

The results go on:
structure,Vaccinia Venus,Vaccinia mCherry
COc1ccccc1NC(=O)c1ccc2c(c1)OCO2,4%,-11%
CC(C)[C@@H](C(=O)NC1CCCC1)N1C(=O)N2CCc3c([nH]c4ccccc34)[C@@]2(C)C1=O,-7%,-9%
O=C(CCS(=O)(=O)Cc1ccccc1F)N1CCc2ccccc2C1,1%,nt
S=C(NCc1ccccn1)NN=Cc1ccccn1,?,0%
Cc1ccc(NC(=O)CNc2cc(S(=O)(=O)N3CCOCC3)ccc2N2CCOCC2)cc1S(=O)(=O)N(C)C,-17%,-10%
Nc1ccc2oc(-c3ccccn3)nc2c1,-2%,-4%
O=C(NCCc1ccccc1)Nc1nnc([C@@H]2C[C@H](O)[C@@H](CO)O2)s1,3%,-14%
Cc1cc(-n2c(C)cc(C(=O)CSc3nnnn3-c3ccccc3)c2C)no1,-9%,-17%
CCCCn1nc(C(=O)OCC(=O)Nc2sccc2C(N)=O)c2ccccc2c1=O,-22%,-1%
Fc1ccccc1OCC1CCCN(Cc2nc(CC3CC3)no2)C1 (stereo not given),-12%,i
NS(=O)(=O)c1ccc(CCNC(=O)COC(=O)CCSc2ccc(Cl)cc2)cc1,-1%,-8%
O=C(NCCN1CCN(C(=O)c2cccc([N+](=O)[O-])c2)CC1)C(=O)NCc1ccc(Cl)cc1,-9%,-27%
O=C(CSc1nnc(-c2ccc(O)cc2)o1)NNC(=O)c1ccncc1,7%,23%
O=C(c1cc2cc([N+](=O)[O-])ccc2oc1=O)N1CCN(C2CCCCC2)CC1,-2%,i
Cc1c(C(=O)NC(=S)Nc2ccc(N3CCOCC3)cc2)cccc1[N+](=O)[O-],-1%,?
COc1ccc(CC(=O)OCC(=O)NCc2ccc(Cl)cc2)cc1,-4%,-3%
COc1ccc(C(CNC(=O)c2cccc(NC(=O)c3cccs3)c2)N2CCCC2)cc1 (stereo not given),-17%,-11%
N#C/C(=C\c1cccnc1)c1ccc(Br)cc1,-25%,i
Cc1c(N)cccc1-n1cnnn1,-9%,-3%
COc1ccc(N2CCN(C(c3ccccc3)c3nnnn3Cc3ccc(F)cc3)CC2)cc1 (stereo not given),?,nt
CC1CCN(c2ccc(-c3ccc(NC(=O)C(F)(F)F)cc3)nn2)CC1,-8%,-20%
C=CCOC(=O)C1=C[C@@H](c2ccc(Br)cc2)C[C@@H](OCCCCO)O1,-10%,-8%
C=CCc1ccc(OCc2ccc(C(=O)O)o2)c(OC)c1,-16%,i
O=C(CCCN1C(=O)/C(=C\c2cccc(Br)c2)SC1=S)Nc1cccnc1,?,?
COC(=O)c1ccccc1NC(=O)NCCc1c(C)nn(C)c1C,-3%,-12%
Cc1ccc2nsnc2c1NC(=O)c1sc2ccccc2c1Cl,-14%,-13%
COc1cccc(CCNC(=O)c2ccc(Cn3c(SCc4ccccc4)nc4cccnc43)cc2)c1,-14%,-17%
CCC1Nc2ncnc(N3CCOCC3)c2N(Cc2ccc(OC)cc2)C1=O (stereo not given),-18%,i
Cc1cccc(CNC(=O)C2CCN(S(=O)(=O)c3cccc4nonc34)CC2)c1,1%,-1%
O=C(CNC(=O)c1ccc(Cl)c([N+](=O)[O-])c1)OCN1C(=O)c2ccccc2C1=O,-8%,-14%
Cc1cc(C)cc(N2CC(O)=C(c3nc4ccccc4c(=O)[nH]3)C2=N)c1,-26%,-10%
Cc1ccc(C)c(NC(=S)N(C2CCCCC2)C(C)c2cccnc2)c1 (stereo not given),-15%,-13%
Cc1onc(-c2ccccc2)c1C(=O)Nc1nc(-c2ccccc2)cs1,-20%,nt
CCN(CC)c1nc2c(S(=O)(=O)c3cccc(Cl)c3)nnn2c2ccsc12,-24%,?
COc1cc(S(=O)(=O)Nc2ccc(C)cc2)ccc1N=Cc1c(C)c(C#N)c(=O)n(C)c1O,9%,4%
COc1ccc(CN(C)C(=O)CCl)cc1,-18%,?
